NPYLR7 ag = mosquito NPYLR7 agonism; 270,000 tested, 0.15% active; activation, % at 10 µM; HEK293T NPYLR7/Galpha15, GCaMP6s calcium fluorescence; in the data active means activation above about 40%;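 further: 0% = vehicle and 100% = reference agonist at the receptor; some compounds past the cut are filed as inactive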
NPYLR7 ag max-min = further read-out of NPYLR7 ag, marked with its call; activation, %; measured here: Max-Min RFU normalised activation; some inactives read as strong as hits;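 span of the calcium signal over five minutes; 0% = vehicle and 100% = native peptide agonist; compound fluorescence can raise it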
Active calls of the source: *; & = joins results of further samples.

#	Molecule	NPYLR7 ag	NPYLR7 ag max-min
1	CC(Cn1ccc2ccccc21)NCC(=O)Nc1cnccn1 (centres undefined)	5	4
2	COc1cccc(NC(=O)N2CCc3cc(OC)c(OC)cc3C2c2ccccc2)c1 (centres undefined)	17	7
3	CC(O)CC(C)(C)CNC(=O)C(C)(C)c1cccc(C#N)c1 (centres undefined)	1	-1
4	Cc1c(C(=O)Nc2ccc(N3CCN(C)CC3)nc2)oc2ccccc12	3	5
5	Cc1[nH]n(-c2nc(-c3ccc(Cl)cc3)cs2)c(=O)c1N=Nc1ccccc1C(=O)O	-2	-8
6	Cc1ccc(Cn2c(=O)c3c(nc4n(C5CCCC5)c(C)c(C)n34)n(C)c2=O)cc1	3	3
7	CCS(=O)(=O)Oc1ccc(CN(CC(C)C)S(=O)(=O)c2cccc(C(F)(F)F)c2)cc1	14	9
8	Cc1nc(N2CCCC2)nc(-c2cccc(O)c2)c1C	-1	14
9	CCOC(=O)N(C)c1c(CC)nc2c(OCc3ccccc3C)cccn12	2	-11
10	CCOC(=O)C1CCN(c2nc(CCc3ccccc3)nc3sc4c(c23)CCCCC4)CC1	4	5
11	O=C(COC(=O)c1ccc([N+](=O)[O-])cc1Cl)c1ccc(Br)cc1	-2	-2
12	O=C(c1cn(C2CCCCC2)nn1)N1CCCC2(CCCN(Cc3ccccc3)C2)C1 (centres undefined)	4	0
13	Cc1cc(CNC(=O)c2noc(-c3cccnc3)n2)no1	2	-1
14	CCC(NC(=O)N1CCC(CN2CCOCC2)CC1)c1ccncc1 (centres undefined)	0	13
15	CN[C@H](CC(C)C)C(=O)N[C@H]1C(=O)N[C@@H](CC(N)=O)C(=O)N[C@H]2C(=O)N[C@H]3C(=O)N[C@H](C(=O)N[C@H](C(=O)O)c4cc(O)cc(O)c4-c4cc3ccc4O)[C@H](O)c3ccc(c(Cl)c3)Oc3cc2cc(c3O[C@@H]2OC(CO)[C@@H](O)[C@H](O)[C@H]2O[C@H]2C[C@](C)(N)[C@H](O)[C@H](C)O2)Oc2ccc(cc2Cl)[C@H]1O (some centres undefined)	-2	-7
16	CCOC(=O)c1sc2c(c1C)c(=O)c(C(=O)OCC)cn2CC	9	2
17	COCC(C)N1CCN(C(C)c2cccc(Cl)c2)CC1 (centres undefined)	0	0
18	CCOC(=O)CNC(=O)N(CC(=O)N(CCc1c[nH]c2ccccc12)Cc1ccc(C(F)(F)F)cc1)C1CC1	13	12
19	O=C(CCl)Nc1cc([N+](=O)[O-])ccc1Cl	-6	-10
20	CCCN(CCC)C(=O)c1csc(CSc2nnc(C)n2-c2ccccc2C)n1	1	9
21	COc1ccc(OC(F)(F)F)cc1CC1(C)C(=O)Nc2c(Cl)ccc(Cl)c21 (centres undefined)	2	-2
22	COc1ccc(C2CC(=O)C3=C(C2)N=C(C)C(C#N)C3c2cc(OC)c(OC)cc2Br)cc1 (centres undefined)	-5	3
23	COc1ccc(C(=O)N(Cc2cccc(C)c2)[C@@H]2CCCCC2NC(=O)[C@H]2CCCN2C(=O)c2ccc(Cl)cc2Cl)cc1 (some centres undefined)	22	21
24	C=CC[C@@H]1CC=C[C@@H](C)N1C(=O)COc1ccc(F)cc1	12	9
25	CSc1nnc(C(C)(C)C)c(=O)n1N=Cc1ccc([N+](=O)[O-])cc1	-7	-11
26	O=C(Nc1cccc(O)c1)c1cccc(S(=O)(=O)N2CCOCC2)c1	6	5
27	C=CCn1nnc(NC(=O)c2ccc(OCC)c(Br)c2)n1	0	-1
28	CCn1nnc2c(N3CCN(C(C)=O)CC3)ncnc21	12	7
29	Oc1ccc(C2=Nn3c(nnc3-c3ccccc3O)SC2)cc1O	14	13
30	CCCCc1ccc(C(=O)Nc2ccccc2C2SCC(=O)N2c2ccc(OC)cc2OC)cc1 (centres undefined)	12	11
31	COC(C(=O)Nc1ccnn1C1CCN(C(=O)c2cccc(F)c2)CC1)c1ccccc1 (centres undefined)	5	3
32	COc1ccc(-c2cc(C(=O)NCCN3CCCCC3)n3nc(C(C)(C)C)cc3n2)cc1	17&2	18&4
33	CC(=O)N1CCc2c(sc(NC(=O)c3ccc(Cl)s3)c2-c2nc3ccccc3s2)C1	1	-3
34	O=C(NCCc1ccccn1)c1cccnc1Nc1cccc(Cl)c1	8	6
35	COc1ccc(CN(Cc2cccc(C(F)(F)F)c2)Cc2nc(C(=O)NCC3CCCO3)co2)c(OC)c1 (centres undefined)	3	14
36	Fc1cccc(Cl)c1CN1CCN(c2nnnn2-c2ccccc2)CC1	9	6
37	COC(=O)C1=C(C)NC(=O)N(C(C)=O)C1c1ccc2c(c1)OCO2 (centres undefined)	-4	-3
38	Cc1c(C)n2c3c(=O)n(C)c(=O)n(C)c3nc2n1Cc1c(F)cccc1Cl	10	8
39	O=[N+]([O-])c1ccc(N=Nc2c(O)[nH]c3ccc(Br)cc23)c([N+](=O)[O-])c1	-2	-5
40	NC(=O)C1CCN(S(=O)(=O)c2cccs2)CC1	9	5
41	CSCc1noc(CNc2nccc(-c3cn(C)nc3C)n2)n1	20	13
42	Cc1cccc(Oc2cnn(-c3ccccc3)c(=O)c2Nc2ccc(C(=O)NCCN3CCOCC3)cc2)c1C	9	8
43	Cc1nc(N2CCC(O)CC2)c2c(-c3cccs3)csc2n1	1	26
44	CC(=O)N(N=C1Sc2ccccc2C1=O)c1ccccc1C	-2	-5
45	Fc1ccc(Cn2nnc(-c3ccc(Br)cc3)n2)cc1	9	4
46	O=C(NC1CC1)C1CC(=O)N(C2CCCCCC2)C1 (centres undefined)	-1	1
47	CCCCC(=O)Nc1cc(C(N)=O)n(C)c1	2	2
48	O=P(O)(O)Oc1ccccc1	0	-2
49	O=C(CCCCC1CCSS1)N1CCC2(CC1)OCCO2 (centres undefined)	17	7
50	O=[N+]([O-])c1c(-c2ccccc2)c2cc(Br)ccc2n2nnnc12	13	11
51	O=C(c1ccc(S(=O)(=O)C(F)F)cc1)N1C2CCC1CC(O)C2 (centres undefined)	-4	-6
52	CC1=C(C(=O)Nc2ccccc2)C(c2cccnc2)n2nc(SCc3ccccc3)nc2N1 (centres undefined)	1	-1
53	Cc1ccc(-c2nc(C)sc2CC(=O)NCc2ccccc2Cl)cc1	1	1
54	C=CCn1c(SCc2ccc(Cl)cc2Cl)nnc1-c1cc(OC)cc(OC)c1	7	10
55	COc1ccccc1-n1ccnc(SCc2ccccc2C)c1=O	7	14
56	N#Cc1ccc(S(=O)(=O)Cl)cc1	21	11
57	CCN1CCN(C(=O)NC(c2ccc(C)c(F)c2)C(Cl)Cl)CC1 (centres undefined)	3	2
58	CC(C)(C)n1ncc2c(=O)n(NC(=O)Cc3ccc(Cl)cc3)cnc21	6	1
59	CCOC(=O)CCC(=O)Nc1nn(C)c2c1C(C)CC(=O)N2 (centres undefined)	-3	-6
60	CC(c1ccccc1)N(Cc1ccco1)Cc1nc(C(=O)O)co1 (centres undefined)	16	13

The results go on.
#	Molecule	NPYLR7 ag	NPYLR7 ag max-min
61	CCCCOc1ccc(NC(=O)NCc2nncn2C2CC2)c(C)c1	2	2
62	COCc1ccc(CN2CCC(CCC(=O)NC3CC3)CC2)o1	3	3
63	CC(=O)N1CCN(c2c(C)cnc3c2c(=O)n(CC(N)=O)c(=O)n3C)CC1	1	-2
64	OCC1(Cc2cccc(F)c2)CCN(Cc2cccc3nccnc23)CC1	-7	-14
65	CC(C)NC(=O)N(Cc1ccco1)Cc1cc(NC(=O)c2cccc(F)c2)ccc1N(C)C	3	3
66	Cc1ccc(-c2noc(C(NCC(O)Cc3ccccc3)C(C)C)n2)cc1Cl (centres undefined)	12	14
67	O=C(Nc1ccc(N2CCCCC2)c(C(=O)NCc2ccccc2)c1)c1cc(C(F)(F)F)cc(C(F)(F)F)c1	1	12
68	NCC(=O)NNC(=O)OCC1c2ccccc2-c2ccccc21	-12	-16
69	Cc1ccccc1-n1ncc(C(=O)Nc2ccccc2C(=O)N(C)C)c1C	-1	-2
70	Cc1nc(SCc2cccc(C(=O)O)c2)nc(N2CCN(c3cccc(C(F)(F)F)c3)CC2)c1C	9	16
71	COc1ccc(NC(=O)C2(C)CCN2Cc2ccccc2Cl)cc1OC (centres undefined)	6	-1
72	CNCc1ccc(-c2cc(-c3nc(-c4ccc(S(=O)(=O)C(C)C)cc4)cnc3N)on2)cc1	-4	-11
73	CC(C)(C)CC(=O)N1CCN(S(=O)(=O)c2cc3c(cc2Cl)NC(=O)CO3)CC1	1	-2
74	CCc1ccc(S(=O)(=O)N=C2C=CC(=O)c3ccccc32)cc1	1	0
75	CC(C)N(C(=O)COC(=O)c1cccc(CC#N)c1)C1CCCCC1	9	8
76	CCCNC(=O)Cn1nc2c(c1NC(=O)c1ccc(Br)o1)CSC2	-7	-10
77	COc1ccc(CCC(=O)NNC(=O)c2cccn(Cc3ccc(F)cc3)c2=O)cc1	-15	-21
78	CC1C(=O)N(c2ccccc2-c2ccccc2)CCN1C(=O)c1ccc([N+](=O)[O-])cc1 (centres undefined)	-5	4
79	COc1cccc(CN(C)C(=O)c2cn(Cc3ccc(Cl)cc3)nn2)c1	12	8
80	CCc1ccc(-c2nn3c(=S)nc4ccccc4c3[nH]c2=O)cc1	-1	-4
81	Cc1nc(C2CCCN2c2c(C#N)c(=O)n(C)c(=O)n2C)no1 (centres undefined)	10	9
82	O=C(O)C1COC2(CCCCC2)N1C(=O)Cc1ccccc1 (centres undefined)	11	11
83	CCCc1nc(C)cc(N2CC(c3cccnc3)C2)n1	12	4
84	COC(=O)C(F)(F)C(F)(F)C(F)(F)OC(F)(C(=O)OC)C(F)(F)F (centres undefined)	1	-2
85	COCCn1c(C(C)NC(=O)c2ccc(-c3ccccc3)cc2)nc2ccccc2c1=O (centres undefined)	26	22
86	COCCn1ccc2c(cnc3nc(C)nn32)c1=O	3	3
87	C(=NNc1ccc2ccccc2n1)c1ccccn1	9	5
88	COCCN(Cc1nc2cc(Cl)ccc2o1)C(=O)C(C)Oc1ccccc1 (centres undefined)	5	2
89	CC(C)c1cc(C(C)C)c(S(=O)(=O)N2CCC(c3c[nH]c4ccc(F)cc34)CC2)c(C(C)C)c1	36	32
90	CCCCc1ccc(N2C(=NC(=O)CC)SC3CS(=O)(=O)CC32)cc1 (centres undefined)	-10	-14

Entries 1 through 3, quoted:
#	Molecule	NPYLR7 ag	NPYLR7 ag max-min
1	CC(Cn1ccc2ccccc21)NCC(=O)Nc1cnccn1 (centres undefined)	5	4
2	COc1cccc(NC(=O)N2CCc3cc(OC)c(OC)cc3C2c2ccccc2)c1 (centres undefined)	17	7
3	CC(O)CC(C)(C)CNC(=O)C(C)(C)c1cccc(C#N)c1 (centres undefined)	1	-1

Entries of single compounds, quoted from the list. Order of screens: NPYLR7 ag, NPYLR7 ag max-min
Profile of `COC(=O)C(F)(F)C(F)(F)C(F)(F)OC(F)(C(=O)OC)C(F)(F)F` (centres undefined) → 1, -2
Profile of `CCCc1nc(C)cc(N2CC(c3cccnc3)C2)n1` → 12, 4
Profile of `CCc1ccc(-c2nn3c(=S)nc4ccccc4c3[nH]c2=O)cc1` → -1, -4

More structures follow.
#	Molecule	NPYLR7 ag	NPYLR7 ag max-min
91	O=c1[nH]cc(N=Cc2ccccc2)c(=O)[nH]1	-2	14
92	CC1(C)CC(C=Cc2ccccn2)=Cc2c1sc(NC(=O)CCl)c2C#N	1	-1
93	N#CCNC(=O)CN(CCO)c1ccc(Br)cc1	-3	-10
94	CC(NC(=O)c1cccc2ccnn12)c1ccccc1-n1cccn1 (centres undefined)	8	7
95	C=CCN1C(=O)/C(=C2/Sc3ccc(OC)cc3N2CC)SC1=Nc1ccccc1	-7	-12
96	COc1cccc(C=NNc2ncnc3sc(C)c(C)c23)c1O	-7	-7
97	Cc1ccc(C2C(C(=O)c3cccs3)=C(O)C(=O)N2CCCN(C)C)cc1 (centres undefined)	5	4
98	Cc1nn(C)c(Cl)c1-c1c(-c2ccccc2)ncn1CCc1cnc[nH]1	-1	-1
99	Cc1csc2nc(O)c(C(=O)NCC3CCCO3)c(=O)n12 (centres undefined)	-1	49
100	CC(=O)OC(C(=O)N(Cc1nc2cc(C)ccc2o1)Cc1cc(F)ccc1F)c1ccccc1 (centres undefined)	4	4
101	CCOCCCN(Cc1nc(C(=O)OC)cs1)C(=O)c1ccc2ccccc2c1	13	15
102	O=C(NC(C(=O)Nc1ccccc1)C1CCN(C(=O)C2CCCC2)CC1)c1ccc(F)cc1 (centres undefined)	0	2
103	CN(Cc1csc(CC(=O)Nc2ccccc2)n1)Cc1ccco1	1	1
104	CCCCN(CC(=O)N(CCc1ccc(OC)c(OC)c1)Cc1cccs1)C(=O)CCc1ccccc1	-10	-5
105	O=C(NC1CC1)C1CNCCN1C(=O)C(c1ccccc1)c1ccccc1 (centres undefined)	17	0
106	CN(C)C(=O)c1ccc(-c2ccc(Oc3ccccc3)cc2)s1	-11	-5
107	CC1(Cc2ccc(Cl)cc2)C(=O)Nc2c(Cl)cccc21 (centres undefined)	-1	3
108	O=C(NCc1cccs1)c1cc2c(s1)CSC2	17	12
109	CCCCN(C)c1c(C)nc2ccc(C(=O)NCCN(C)C)cn12	-5	-9

In a second layout: two of the compounds above.
76) CCCNC(=O)Cn1nc2c(c1NC(=O)c1ccc(Br)o1)CSC2
81) Cc1nc(C2CCCN2c2c(C#N)c(=O)n(C)c(=O)n2C)no1 (centres undefined)

Assay by compound	76	81
NPYLR7 ag	-7	10
NPYLR7 ag max-min	-10	9

A portion of the library; the hit share may differ from the screen's.
